Assay outcomes as filed in PubChem.
RE007 growth inh – qHTS Assay for Inhibitors of the HIV-1 protein Vpr; S. pombe RE007 Vpr strain, BacTiter-Glo ATP luminescence, 24 h; control for the full effect not named in the record; Potency, µM (doses to about 92.2 µM), for inactives: at the highest dose activity change, negative = less growth; hit rate 0.21% among 360,000; AID 651644, 2012; active = well fitted falling curve with a large enough effect; inconclusive = small, poorly fitted or top-dose-only effect; inactive = no such curve, though single readings can be large or run the other way;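 note: % is set by controls: 0 for no effect and ±100 for the full control effect; nearly all actives have a fitted effect of over 50% in size; the assay follows cell death caused by Vpr and the record does not say whether a fall means rescue or toxicity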
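Fission yeast strain RE007, carrying one chromosomally integrated HIV-1 vpr copy, was seeded at OD 0.01 in PMG+AL medium with 23 nL pinned compound. After 24 h at 30 °C and 99% humidity, viability was read by BacTiter-Glo luminescence.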
MARV entry inh – qHTS for inhibitors of binding or entry into cells for Marburg Virus; hit rate 1.8% among 300,000; Potency, µM (highest dose often 37.8 µM), without a hit: at the top dose activity change, negative = inhibition, actives largely listed as inhibitors; Marburg virus pseudotyped entry inhibition, cell reporter; control for the full effect not named in the record; about a third of the inactives were read at about 46 µM; AID 540276, 2011; active = well fitted inhibition curve with a large enough effect; inconclusive = small, poorly fitted or top-dose-only effect, or effect the other way; inactive = flat fitted curve, though single readings scatter; tested in HEK293 cells; about a fifth of its hits are not listed in these tables; note: % is set by controls: 0 for no effect and ±100 for the full control effect; luciferase read-out
LASV entry inh – qHTS for Inhibitors of binding or entry into cells for Lassa Virus. hit rate 1.2% among 300,000. Potency, µM (titrated, usually from 37.9 µM), for the others: top-dose activity change, negative = inhibition, most hits filed as inhibitors. Lassa virus pseudotype entry inhibition, cell reporter; control for the full effect not named in the record; active means well fitted inhibition curve with a large enough effect; inconclusive means small, poorly fitted or top-dose-only effect, or effect the other way; inactive means flat fitted curve, though single readings scatter; tested in HEK293 cells; note: % is set by controls: 0 for no effect and ±100 for the full control effect; nearly all actives have a fitted effect of over 50% in size; luciferase read-out
Cruzain noTriton – qHTS Assay for Promiscuous and Specific Inhibitors of Cruzain (without detergent); purified cruzain, Z-FR-AMC fluorescence, no detergent; Potency, µM, for inactives: max response, negative = inhibition, usual class: inhibitors; hit rate 2.3% among 200,000; active = well fitted curve in the direction sought with a large enough effect; inconclusive = small, poorly fitted or top-dose-only effect, or another doubt; inactive = no such curve, though single readings can be large; an effect the other way counts as inactive or inconclusive;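 note: plate controls were enzyme without inhibitor for no effect and buffer without enzyme for full effect; nearly all actives have a fitted effect of over 40% in size; top concentration of the series not given in the record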
Target sequence (P25779 123-467 limits assumed): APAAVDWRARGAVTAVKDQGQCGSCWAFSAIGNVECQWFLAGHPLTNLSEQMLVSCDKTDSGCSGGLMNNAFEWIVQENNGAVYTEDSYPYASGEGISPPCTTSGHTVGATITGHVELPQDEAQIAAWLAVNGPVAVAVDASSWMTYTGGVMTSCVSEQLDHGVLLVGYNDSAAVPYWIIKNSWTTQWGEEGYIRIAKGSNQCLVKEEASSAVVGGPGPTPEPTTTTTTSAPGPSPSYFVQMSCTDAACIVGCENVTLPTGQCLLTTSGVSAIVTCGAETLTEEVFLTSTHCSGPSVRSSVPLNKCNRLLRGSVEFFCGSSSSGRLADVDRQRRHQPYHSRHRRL
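Detergent-free condition (0.00005% Triton X-100) in acetate buffer pH 5.5 with DTT. 1.5 nM enzyme and compound were pre-mixed 15 min, then 2 uM Z-FR-AMC substrate added; reaction progress from fluorescence change between first and third reads (60 s).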
SARS PLP yeast – qHTS of Yeast-based Assay for SARS-CoV PLP; hit rate 0.19% among 330,000; Potency, µM (top dose mostly 32.9 µM), for the others: at the highest dose activity, positive = growth rescue; S. cerevisiae expressing SARS-CoV PLpro, growth rescue; control for the full effect not named in the record; AID 485353, 2010; note: 0% is about no effect; nearly all actives have a fitted effect of over 55% in size; growth read by luminescence after 48 h
NS1 inh – qHTS Assay for Inhibitors of Influenza NS1 Protein Function | Potency, µM (series often up to 46.1 µM), without a hit: at the top dose activity, positive = more growth | hit rate 0.4% among 270,000 | AID 2326, 2010 | S. cerevisiae slowed by influenza A NS1, growth recovery by OD600; note: actives are rising curves; nearly all actives have a fitted effect of over 50% in size
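Read-out: OD600 growth recovery of NS1-expressing budding yeast. Cells grown overnight at 30C in -URA glucose medium, washed, resuspended and diluted 1:100 in 2% galactose assay medium, pH 6.0. Same strain lacking NS1 served as positive control.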
Cruzain inh Det – qHTS Assay for Promiscuous and Specific Inhibitors of Cruzain (with detergent) | purified cruzain, Z-FR-AMC fluorescence, 0.01% Triton | Potency, µM, without a hit: max response, negative = inhibition, actives largely listed as inhibitors | hit rate 0.43% among 200,000 | AID 1478, 2009; active = well fitted curve in the direction sought with a large enough effect; inconclusive = small, poorly fitted or top-dose-only effect, or another doubt; inactive = no such curve, though single readings can be large; an effect the other way counts as inactive or inconclusive;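 note: plate controls were neutral wells for no effect and buffer without enzyme for full effect; nearly all actives have a fitted effect of over 40% in size; top concentration of the series not given in the record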
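In this qHTS format, compounds are incubated with 1.5 nM cruzain for 15 min at room temperature before 2 uM Z-FR-AMC is added. Release of AMC is followed at 360/450 nm, and progress is taken as the 60 s fluorescence difference.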
StopGo reporter – High Throughput Screening for Foot and Mouth Disease Virus Antivirals; human cells with a luciferase reporter of 2A StopGo recoding; control for the full effect not named in the record; Potency, µM (highest dose often 57.9 µM), for the others: at the highest dose signal change, negative = less light; hit rate 1.2% among 410,000; active = well fitted falling curve with a large enough effect; inconclusive = small, poorly fitted or top-dose-only effect; inactive = no such curve, though single readings can be large or run the other way; tested in HEK293T cells; note: % is set by controls: 0 for no effect and ±100 for the full control effect; nearly all actives have a fitted effect of over 45% in size; luciferase light after 4 h
Starred values were filed as active, the others as inactive; ? = inconclusive; nt = not tested or not shown; & = joins results of further samples; [ ] = another dose, or the depositor's remark. Unless noted, calls come from the whole dose curve; as a rule, active means well fitted rising curve with a large enough effect; inconclusive means small, poorly fitted or top-dose-only effect; inactive means no such curve, though single readings can be large or run the other way. Potency is the fitted concentration of half-maximal effect.

SMILES	RE007 growth inh	MARV entry inh	LASV entry inh	Cruzain noTriton	SARS PLP yeast	NS1 inh	Cruzain inh Det	StopGo reporter
CCCc1nnc(NC(=O)C(=O)NCCN(C)C)s1	-17%	4%[46.1 µM]	0%	nt	1%	-3%	nt	9%
O=c1c2ccccc2nc(/C=C/c2ccc3c(c2)OCO3)n1-c1ccccc1	5%	-6%	0%	-5%	4%	-2%	-7.4%	?
Cc1cccc(N=C2NC(=O)S/C2=C\c2ccco2)c1	-4%	-37%	-1%	?	5%	11%	-4.4%	6%
CC(C)COc1ccc(C(=O)Nc2cc3nn(-c4ccccc4)nc3cc2Cl)cc1	nt	4%[46.1 µM]	28%[46.1 µM]	-5%	nt	nt	0.5%	6%
CCOc1cc(CNC(=O)c2ccc(C)c(NC(=O)c3nsc4ccccc34)c2)ccc1OC	nt	nt	?	-8%	nt	nt	-0.8%	-19%
C=COCCn1c(=N)n(CCC)c2ccccc21	-8%	-6%	1%	6%	4%	-2%	-1.3%	-16%
CCOc1cc(CNc2ccc3[nH]c(=O)[nH]c3c2)ccc1OCC(=O)NC(C)(C)C	16%	3%&1%	-10%	-13%	0%	1%	-5.2%	?
Cc1ccc(S(=O)(=O)NCCOc2nc(N(C)C)nc(N3CCOCC3)n2)cc1	8%	-14%&-14%	?	-2%	-1%	-8%	-5.4%	11%
COc1ccc2c(c1)c1c(c(=O)n(-c3cc(Cl)ccc3C)c(=O)n1CC(=O)N1CCCC1)n2C	nt	nt	23%[46.1 µM]	15%	nt	nt	-2.7%	-26%
CN(Cc1ccccc1)C(=O)COC(=O)C1=NNC(=O)CC1	-16%	?	0%	-5%	24%	17%	3.0%	-24%
COc1ccc(N2C(=O)NC3CC2(C)Oc2ccccc23)cc1OC (stereo unspecified)	3%	-22%	?	6%	0%	9%	0.6%	-12%
Cc1ccc(C)c(NC(=O)CSc2nnc(CNC(=O)c3ccco3)o2)c1	3%	3%[46.1 µM]	2%[46.1 µM]	nt	?	11%	nt	-7%
CCOC(=O)c1cc2c(=O)n3cccc(C)c3nc2n(C)c1=N	nt	nt	nt	?	-7%	-2%	?	nt
c1ccc(-n2nnnc2-c2cnc(-c3cccnc3)nc2-c2cccs2)cc1	8%	?	?	-4%	-3%	-16%	-4.1%	-7%
N#Cc1nc(-c2ccco2)oc1NCCc1ccccc1	-5%	?	18%	-9%	-15%	-114%	-18%	27%
COc1cc2c(cc1NC(=O)COC(=O)/C=C/c1ccc([N+](=O)[O-])cc1)oc1ccccc12	3%	nt	nt	nt	-1%	4%	nt	1%
Cc1ccc(SCCNS(=O)(=O)c2ccc3c(c2)OCCO3)cc1	-29%	-1%	3%	-1%	-33%	-133%	-6.3%	30%[activator]
CCOc1cccc(-c2nnc(SCC(=O)NC3CC3)n2C)c1	-8%	5%[46.1 µM]	13%[46.1 µM]	nt	-2%	11%	nt	6%
CC(C)Cn1c(N)c(C(=O)COC(=O)c2cc(C3CC3)nc3ccccc23)c(=O)n(C)c1=O	-2%	-36%	21µM*	?	1%	-2%	-5.7%&-1.6%	32µM*
CC(=O)c1ccc(NC(=O)Cn2c(=O)cc(C)c3c(C)nn(-c4cccc(F)c4)c32)cc1	nt	nt	-1%[46.1 µM]	-3%	nt	nt	-1.9%	7%
O=C(Nc1ccc2c(c1)CCCN2C(=O)c1cccs1)c1ccccc1C(F)(F)F	nt	nt	?	-14%	nt	nt	-2.9%	-28%
O=C(CN1CCN(Cc2cccc(C(F)(F)F)c2)CC1)NCC(=O)Nc1ccc(F)c(F)c1F	8%	-6%	-7%	nt	nt	nt	nt	?
O=C(CSc1ccc2c(c1)OCCO2)Nc1ccc(Cl)cn1	-2%	9%	?	-8%	6%	-35%	-2.0%	-3%
O=C(CSc1nc2ccccc2c(=O)[nH]1)N1CCN(c2ccccc2F)CC1	19%	1%[46.1 µM]	6%[46.1 µM]	nt	-1%	-1%	nt	-12%
CS(=O)(=O)Nc1nnc(C2CCCC2)s1	-3%	?	-5%	nt	-1%	2%	nt	21%
Carrying on.
SMILES	RE007 growth inh	MARV entry inh	LASV entry inh	Cruzain noTriton	SARS PLP yeast	NS1 inh	Cruzain inh Det	StopGo reporter
COc1cc(S(=O)(=O)Nc2ccccc2C)ccc1NC(=O)c1ccncc1	3%	-12%[46.1 µM]	-16%	nt	2%	-4%	nt	52%[activator]
CN(c1ccccc1)S(=O)(=O)c1cccc(C(=O)Nc2cccc(C(=O)NC3CC3)c2)c1	-5%	-29%	-33%	nt	-1%	nt	nt	?
COC(=O)CSc1nc(C)c(Oc2ccccc2)c(=O)[nH]1	37%	0%&0%[46.1 µM]	2%	4%	-2%	0%	-1.4%	-5%
COCCNC(=S)N1CCC(NC(=O)c2ccco2)CC1	1%	26%[46.1 µM]	4%	nt	0%	1%	nt	-1%
O=C(Cc1csc(-c2ccccc2)n1)NCC(=O)Nc1ccc(F)c(F)c1F	-17%	0%[46.1 µM]	-14%[46.1 µM]	nt	-5%	nt	nt	4%
C[C@H](NC(=O)N1C[C@H]2C[C@@H](C1)c1cccc(=O)n1C2)C(=O)Nc1cccc(F)c1	1%	nt	nt	nt	5%	6%	nt	-15%
COC(=O)c1ccc2c(c1O)C(=O)c1ccccc1C2=O	4.5µM*	?	?	-13%	-12%	-41%	-8.7%	-22%
CCC(C(=O)NCc1ccco1)N(C(=O)CNS(=O)(=O)c1ccc(F)cc1)c1ccccc1F (stereo unspecified)	-7%	-17%[46.1 µM]	-20%	nt	-1%	-3%	nt	26%
CC(=O)Nc1ccc(NC(=O)CSc2nnc3c4cc(Br)ccc4n(C)c3n2)cc1	nt	-15%[46.1 µM]	?	-19%	nt	nt	-20%	6%
O=C(OCC(=O)N1CCCC1=O)c1ccc(Cl)cc1[N+](=O)[O-]	-14%	-20%[46.1 µM]	14%	nt	-4%	nt	nt	9%
COc1ccc(C(=O)CSc2nnc(CN3CCCC3)n2-c2ccc(F)cc2)c(OC)c1	3%	-15%	-2%	-9%	5%	1%	-6.5%	9%
Cc1ccc(OCc2cc(C(=O)N3CCN(C)C[C@@H]3c3ccccc3)no2)cc1C	6%	2%	?	nt	0%	-28%	nt	5%
Cc1ccc(OCC(=O)Nc2ccc3nn(-c4ccc(Cl)cc4)nc3c2)cc1	nt	nt	?	1%	nt	nt	0.3%	-20%
O=C(CSCc1ccccc1Cl)NCc1ccc(Cl)c(Cl)c1	nt	nt	5%[46.1 µM]	6%	nt	nt	-0.9%	-2%
O=C1Nc2ccccc2C1=NN1CCCCCC1	-18%	-15%	0%	nt	nt	nt	nt	10%
CN(C)S(=O)(=O)c1cc(NC(=O)[C@H](Cc2ccccc2)N2C(=O)c3ccccc3C2=O)ccc1Cl	9%	-2%	-5%	20µM*	-1%	?	-4.0%	-5%
CCOC(=O)c1cnc(SC)nc1Oc1cccc(NC(=O)c2cccc(Cl)c2Cl)c1	4%	?	18%	-25%	6%	9%	2.8%	?
COc1ccc(C(C)=O)c2c(O)cccc12	-5%	-25%	-8%	-9%	-1%	-18%	-1.7%	75%[activator]
CC(C)c1ccc(NC(=O)c2cc(S(=O)(=O)N(C)C3CCCCC3)ccc2F)cc1	nt	nt	?	-8%	nt	nt	0.3%	?
Cn1c(SCC(=O)N/N=C/c2ccc([N+](=O)[O-])s2)nnc1-c1ccc(Cl)cc1	?	12µM*	?	10%	-61%	-44%	-4.2%	?
COc1ccc(CNC(=O)C/C(C)=N/NC(=O)C(c2ccccc2)c2ccccc2)cc1	12%	24%[46.1 µM]	-9%	12%	-2%	23%	1.1%	-1%
CCN1C(=O)c2cccc3c(S(=O)(=O)NC(Cc4ccccc4)C(=O)O)ccc1c23 (stereo unspecified)	0%	13%[46.1 µM]	15%	nt	0%	20%	nt	-8%
Cc1nc(C(C)NC(=O)c2cc(COc3ccc(C)c(C)c3)on2)c(C)s1 (stereo unspecified)	-5%	nt	nt	nt	-4%	-47%	nt	60%[activator]
CCC(C)(c1ccc(C=O)s1)c1ccc(C=O)s1	12%	-18%	?	?	-7%	-52%	-3.1%	-19%
Cc1cccc(C(=O)NCC(c2ccco2)N2CCc3ccccc32)c1 (stereo unspecified)	4%	?	-22%	nt	-26%	nt	nt	?
Additional structures
SMILES	RE007 growth inh	MARV entry inh	LASV entry inh	Cruzain noTriton	SARS PLP yeast	NS1 inh	Cruzain inh Det	StopGo reporter
Cn1ncnc2c(=O)n(C)c(=O)nc1-2	-25%	nt	nt	1.3µM*	-26%	-94%	1.3µM*	1.6µM*
O=C(CSc1nccn1Cc1ccccc1)Nc1ccc2c(c1)OCCO2	nt	nt	2%[46.1 µM]	0%	nt	nt	-2.8%	50%[activator]
Cc1nnc2ccc(-c3ccc(NS(=O)(=O)c4ccc(F)cc4F)cc3)nn12	-9%	18%	-10%	nt	-1%	nt	nt	10%
C=CCNC(=O)NC(=O)COC(=O)c1nc2nccc(C)n2n1	-15%	10%	4%[46.1 µM]	nt	2%	nt	nt	-9%
COc1ccc(-c2nc(C)c(CCNC(=O)c3ccco3)s2)cc1	nt	nt	1%[46.1 µM]	0%	nt	nt	-6.7%	37%[activator]
CCCCc1ccc(NS(=O)(=O)c2cccs2)cc1	?	0%	-12%	-5%	-22%	-108%	-12%	4%
O=C(Nc1ccc2c3c(cccc13)CC2)c1cccc([N+](=O)[O-])c1	-25%	?	-13%	?	17%	-26%	-5.8%	-16%
CCCn1cc(CN2CCC(C(=O)Nc3cccc(-c4cscn4)c3)CC2)c(C)n1	-4%	?	-14%[46.1 µM]	nt	-1%	?	nt	-9%
CC(C)NC(=O)c1ccc2c3n(nc2c1)-c1ccccc1CO3	-30%	nt	nt	nt	-11%	-34%	nt	-54%
CN(C)CCNC(=O)c1ccc2nc(CCc3ccccc3)oc2c1	nt	nt	2%[46.1 µM]	-4%	nt	nt	-1.2%	68%[activator]
CN1/C(=C\C(=O)COC(=O)c2nccnc2N)C(C)(C)c2ccccc21	1%	7%	-4%	nt	-28%	nt	nt	4%
O=C(CSc1ccc(C(F)(F)F)cc1[N+](=O)[O-])N1CCOCC1	19%	?	3%	nt	-2%	3%	nt	-19%
CN(Cc1nccs1)C(=O)CC1C(=O)NCCN1Cc1ccc(-c2ccccc2)cc1 (stereo unspecified)	-20%	nt	nt	nt	-1%	4%	nt	-1%
COc1ccc(NC(=O)C(=O)NCCN2CCN(C(=O)c3ccco3)CC2)cc1	5%	-13%[46.1 µM]	nt	nt	-2%	nt	nt	1%
